Source: PubChem (Broad Institute)
Tg IFNy HTS – T. gondii growth inhibition with IFN-gamma, primary screen, cell-based; Toxoplasma gondii growth in IFN-gamma-treated host cells; active compounds read low; reference of the scale not given here; activity change, negative = inhibition, %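 (about 20 µM by stock and volumes)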; 3.8% of 69,000 active;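 active = below -70%; inconclusive = fit judged invalid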;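 also: host cells are HeLa cells infected with Toxoplasma gondii; parasite growth read as luciferase light; one replicate is shown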
Numbers without * were called inactive; i = inactive; ? = inconclusive; & = joins results of further samples. This is a subset (hit frequency here may not be typical).

SMILES | Tg IFNy HTS
COC(=O)C[C@H]1CC[C@@H]2[C@H](COC[C@H](O)CN2S(=O)(=O)c2ccccc2OC)O1 | 13
CC(C)NC(=O)CNC(=O)c1cc2sccc2[nH]1 | 20
CC(c1nccs1)N(C)C(=O)CCC(=O)Nc1ccc(F)c(Cl)c1 (stereo unspecified) | -5
O=C(CO)N1CCCn2nnc(COCCN3CCCC3)c2C1 | 8
CCN(CC)C(=O)CC1CC2(CCN(S(=O)(=O)CC)CC2)Oc2ccccc21 (stereo unspecified) | -1
CCC12CN3CC(CC)(CN(C1)C31C(=O)N(C)c3ccc(C)cc31)C2=O (stereo unspecified) | 47
CC1=C(SCCO)C(=O)c2ccccc2C1=O | -52
CC(SC(=O)c1cccs1)C(=O)NCC(=O)O (stereo unspecified) | -4
COc1ccc(C=NCC2COc3ccccc3O2)cc1OC (stereo unspecified) | 1
COc1ccc(CNC(=O)c2c(O)c3ccccc3n(-c3ccccc3)c2=O)cc1 | 99
COc1c(O)cccc1O | 11
Cc1noc(C)c1C1CCCN1C(=O)c1cccc2c1OCC2 (stereo unspecified) | 23
O=C(O)c1ccc(-n2cnnc2)cc1Cl | 4
COC(=O)C1CCCCN1S(=O)(=O)NCc1ccccc1 (stereo unspecified) | 57
O=C(CC(=O)c1ccccc1O)c1ccc(F)cc1 | -109*
COc1ccc(N(Cc2nc(-c3ccc(C)cc3)oc2C)S(=O)(=O)c2ccc(OC)cc2)cc1 | 4
O=S(=O)(c1cccc(C(F)(F)F)c1)n1nc(C(F)(F)F)c2cnccc21 | 85
O=C(Cn1ncc2c(N3CCCCCC3)ncnc21)Nc1ccccc1F | 49
CN1CC2(CCN(C(=O)c3ccccc3-c3ncc[nH]3)C2)OC1=O (stereo unspecified) | 31
Cc1cccc(N2CC3(CCN(S(=O)(=O)C4CC4)C3)CC2=O)c1 (stereo unspecified) | -2
Cc1ccc(CSc2ccc(-c3sc(-c4ccc(F)cc4)nc3C)nn2)cc1 | -28
COc1ccc(CN(C)C[C@H]2OCCCC[C@H](C)Oc3ccc(NC(=O)C4CCCCC4)cc3C(=O)N([C@H](C)CO)C[C@@H]2C)cc1 | ?
N#Cc1cccc(-c2ccc3c(c2)[C@@H]2[C@@H](CCN2C(=O)c2ccccc2F)[C@@H](CO)N3)c1 | -12
COc1ccc(Br)cc1-c1nc(CSc2nc3c(=O)[nH]cnc3n2C)c(C)o1 | -7
CCN(CC)C(=O)c1cc(=O)n(CC(=O)Nc2cccc(Cl)c2)c2ccccc12 | -3
COc1ccc(C[C@H]2CCn3nncc3COC[C@H](c3ccccc3)NC2=O)cc1 | 48
CCOc1ccc(C2c3[nH]c4ccccc4c3CCN2C(=O)c2cccnc2)cc1 (stereo unspecified) | 55
O=C(C[C@@H]1CC[C@@H]2[C@H](COC[C@H](O)CN2Cc2cc(F)cc(F)c2)O1)Nc1nccs1 | -49
CC(=O)N1CCCn2nc(C(=O)NCCNc3ncccc3C)cc2C1 | 6
Cc1ccc(Nc2ncnc3c2cnn3-c2ccccc2)cc1 | 162
Cc1ncc(-c2ccncc2)c(CN(C)S(=O)(=O)c2ccc3c(c2)sc(=O)n3C)n1 | -27
CSCc1noc(Cn2cnnc2)n1 | -4
COc1ccc(CN(C(=O)c2cc(C(C)C)c3nncn3n2)C2CCN(C)CC2)cc1 | 6
C[C@@H]1CN(CCCn2c3ccccc3c3ccccc32)C[C@H](C)N1 | 3
CC(C)Cc1ccc(S(=O)(=O)N2CCC3(CC2)NCCN=C3NCc2cc(F)cc(F)c2)cc1 | -69
COc1ccc(/C=C/CN2CCN(c3nccnc3C)CC2)cc1 | -9
O=C(CCn1nnc2ccccc21)Nc1cnc2n1CCCC2 | -37
C[C@@H]1CCCCO[C@H](CN(C)S(=O)(=O)c2ccc(F)cc2)[C@H](C)CN([C@@H](C)CO)C(=O)c2cc(N(C)C)ccc2O1 | i
CCc1nc(CN(C)Cc2ccc(C(=O)Nc3cnn(C)c3)cc2)no1 | -4
CCc1ccc(CNC(=O)c2nc(Nc3cccc(C)c3)c3ccccc3n2)cc1 | -98*
CCN1CCOCC2(CCCN(C(=O)c3c[nH]c4ccccc34)C2)C1 (stereo unspecified) | -2
Cc1ccc(-c2nc(C)c(CCNC(=O)C3CCCCC3)s2)cc1 | i
O=C(CSc1nnc(-c2ccco2)o1)NCc1ccccc1 | 85
COC(=O)c1c(C)oc(C)c1S(=O)(=O)N1CCCc2ccccc21 | 1
CO[C@@H]1CN(C)C(=O)c2ccc(NC(=O)Nc3cc(F)ccc3F)cc2OC[C@H](C)N(C(=O)c2ccccn2)C[C@@H]1C | 2
COCCC1CCCCN1C(=O)c1ccc(-n2cnnc2)cc1 (stereo unspecified) | 3
Cc1cccc(OCC2CCCN(c3ccc(-c4nccn4C)nn3)C2)c1 (stereo unspecified) | -12
CCSc1nc(CC(=O)N2CC[C@H]3CC[C@@H](C2)N3)cs1 | 31
COc1cccc(-c2nc(C)c(-c3ccc(SCc4ccccc4)nn3)s2)c1 | -15
CCc1csc(CNC(=O)c2ccc(-c3ncn[nH]3)cc2)n1 | 6
CC1=C(C(=O)Nc2ccc(Br)cc2F)C2(CCN(S(C)(=O)=O)CC2)OC1=O | 4
O=C(c1cccc(Cn2cccn2)c1)N1CC[C@@H](c2ccc(F)cc2)[C@H](O)C1 | -4
CS(=O)(=O)N1CCC(NCc2cnn(Cc3ccccc3)c2)CC1 | -2
COc1ccc(S(=O)(=O)NCCc2sc(-c3cccc(C)c3)nc2C)cc1C | -9
CCN(CC)[C@@H]1CN(S(=O)(=O)c2cn(C)cn2)[C@H]2COC[C@@H]12 | 0
C/C=C/c1ccc([C@H]2[C@@H](CO)N(C(=O)c3cnccn3)C23CN(C(=O)C2CCC2)C3)cc1 | -39
CN1CCC(C)(Cn2ccnc2-c2cnc[nH]2)C1 (stereo unspecified) | 27
O=C(CSc1nc(-c2ccccc2)cs1)c1cc2ccccc2oc1=O | 71
CCOC(=O)C1C(=O)Nc2nc3ccccc3n2C1c1ccc(OC)cc1 (stereo unspecified) | -4
C=CCn1c(=S)sc2c(=O)[nH]cnc21 | -18

The list goes on.
SMILES | Tg IFNy HTS
C/C=C/C(=O)Nc1ccccc1-c1ccc(-c2ccn[nH]2)cc1 | -93*
COC(=O)c1c(NCc2ccc3c(c2)OCO3)c2ccc(F)cc2[nH]c1=O | 48
COc1cc(F)ccc1-c1c(-c2ccccc2)ncn1CC1CCOCC1 | -34
CCN(CC)C(=O)C1Cn2ccnc2C2(CCN(Cc3cccs3)CC2)O1 (stereo unspecified) | 1
CCCC(NC(=O)C(C)N1C(=O)NC(C)(C)C1=O)c1cccs1 (stereo unspecified) | 25
CCN1C(=O)CCc2cc(NS(=O)(=O)c3ccc(C(F)(F)F)cc3)ccc21 | -103*
COCCNC(=O)[C@H]1C[C@H]2CCN(S(C)(=O)=O)C[C@H]2O1 | 2
OC12CCCCC1C(c1ccc(Cl)cc1Cl)NCC2 (stereo unspecified) | 69&-54
CCCN(CCC)CCCNC(=O)C1=C(C)C(=O)OC12CCN(CC)CC2 | 78
CCn1c(=O)c2c(nc(SCC(=O)NC(C)(C)C)n2C)n(C)c1=O | -62
Cc1ncc(CN2CCC(CNS(=O)(=O)C3CC3)C2)cn1 (stereo unspecified) | 8
C[C@@H]1CN([C@@H](C)CO)C(=O)c2cc(NS(C)(=O)=O)ccc2O[C@@H](C)CCCCO[C@@H]1CN(C)CC1CCCCC1 | 50
CCCS(=O)(=O)N1C[C@H]2COC[C@H](c3nc(C)no3)[C@H]2C1 | -1
Cc1cc(C)cc(NC(=S)N2CCN(c3ncc(C(F)(F)F)cc3Cl)CC2)c1 | 36
CCCC(=O)N1CCC2(CC1)CN[C@H](CO)c1[nH]c3cc(OC)ccc3c12 | 398
Cc1ccc(/C=N/Nc2nc(C(C)(C)C)cs2)o1 | 27
CCc1c(C)nn(CC(=O)N2CCn3cccc3C2C)c1C (stereo unspecified) | -2
O=C(O)C1CC(=O)N(CC2CCCO2)C1 (stereo unspecified) | -2
Cc1ncccc1OC1(C(=O)N2CC=CC2C(C)C)CCNCC1 (stereo unspecified) | 11
CCS(=O)(=O)Nc1ccc2c(c1)C(=O)N(C)C[C@H](OC)[C@@H](C)CN(C(=O)c1ccc3c(c1)OCO3)[C@@H](C)CO2 | 12
CCOC(=O)N1CCN(C(=O)CN(C2CCCCC2)S(C)(=O)=O)CC1 | -2
O=c1oc(-c2ccccc2Cl)nc2sc3c(c12)CCCCC3 | 12
COC(=O)[C@H]1C[C@@H](O)CCN1S(=O)(=O)c1c(C)cc(OC)c(C)c1C | -1
CCCn1c(NCc2ccccc2NS(=O)(=O)c2ccc(C)cc2)nc2ccccc21 | -49

Arranged by count of non-hydrogen atoms (largest number first): some entries from above.
SMILES | Tg IFNy HTS
COc1ccc(C[C@H]2CCn3nncc3COC[C@H](c3ccccc3)NC2=O)cc1 | 48
CCN(CC)[C@@H]1CN(S(=O)(=O)c2cn(C)cn2)[C@H]2COC[C@@H]12 | 0
CC1=C(SCCO)C(=O)c2ccccc2C1=O | -52

(next part)
SMILES | Tg IFNy HTS
CNC(=O)[C@]12CCC3(CCN(C(=O)C4CCOCC4)CC3)[C@H]1CN(C(C)=O)C2 | 4
Cc1oncc1C(=O)N1CCC2(CC1)Cc1ccccc1CN(C)C2=O | 44
CN1C(=O)c2cc(NC(=O)Nc3ccccc3F)ccc2OC[C@@H]2O[C@H](CC(=O)NCCc3ccncc3)CC[C@@H]21 | -12
Cn1cccc1CN1C[C@H]2CN(Cc3cccs3)C[C@H]2C1 | -34
CN1CCN(Cc2ccc(-n3cccn3)cc2)CC1C(=O)O (stereo unspecified) | 12
Cc1ccc(C(=O)NCCc2sc(-c3ccc(Cl)cc3)nc2C)cc1C | -12
S=c1[nH]nc(-c2ccccc2Br)o1 | 1
O=c1oc(-c2ccc(C(F)(F)F)cc2)nn1Cc1cc(Cl)ccc1O | -61&-51
Cc1cccc(NC(=O)c2cncc(NS(=O)(=O)c3ccc(Br)cc3)c2)c1 | 14
CCN(Cc1ccc(OC)cc1)C(=O)c1cn2c(n1)CNCC2 | 4
CN(Cc1ccc2nonc2c1)C(=O)c1cn(Cc2c(F)cccc2F)nn1 | -46
CN(C)c1nc(-c2cnn(C)c2)nc2c1CN(Cc1cccc(C#N)c1)CC2 | -3
COc1ccccc1-c1nc(Cn2nnc(C(=O)Nc3c(C)cccc3C)c2C)c(C)o1 | i
COc1cccc(CCN2C[C@]34CN(c5ncc(F)cn5)C[C@@H](C[C@H]3S2(=O)=O)O4)c1 | 1
O=C(CN1CCN(c2ccccc2)CC1)NN1CC(=O)N(c2cccc(Cl)c2)CC1=O | -19
CO[C@@H](C(=O)N(C)C[C@@H]1OCc2ccccc2-c2ccccc2C(=O)N([C@@H](C)CO)C[C@H]1C)c1ccccc1 | 25
CC1(C)CC(NC(=O)C23CCC(C)(C(=O)C2=O)C3(C)C)CC(C)(C)N1 (stereo unspecified) | -13
O=C(OCc1ccco1)c1sc2sccc2c1Cl | -50
Cc1ccc(-c2nc(CN3CCN(C(=O)Nc4cccc(Cl)c4)CC3)c(C)o2)cc1 | 1
Cc1oc(-c2ccccc2Cl)cc1C(=O)N(C)Cc1noc(C(C)C)n1 | -41
Cc1ccc(OCC(=O)Oc2cccc3cccnc23)cc1C | 9
O=C(CCN1CCCCC1)N[C@H]1CC[C@@H](CCn2cc(-c3cccc(F)c3)nn2)O[C@@H]1CO | -13
Cc1nc(-c2cccc(F)c2)sc1CCNS(=O)(=O)c1cccc(Cl)c1 | 34
COC(=O)c1cc(CN2CCN(Cc3cccc(F)c3)CC2)cs1 | 0
O=C(NC[C@H]1N[C@H](CO)[C@@H]1c1ccc(-c2cncnc2)cc1)C1CCCCC1 | 5
Nc1c(S(=O)(=O)O)cc(Nc2cccc3ccccc23)c2c1C(=O)c1ccccc1C2=O | 6
CN1C(=O)N(Cc2cccnc2)C(=O)C12CCN(CCc1ccccc1)CC2 | -6
CCOC(=O)c1cc2c(n(-c3ccccc3)c1=O)CC(C)(C)CC2=O | -12
CC(C)OCC12CCCOC1CCN(C(=O)C1=CCCC1)C2 (stereo unspecified) | -26
CCN(C[C@@H]1N[C@H](CO)[C@H]1c1ccccc1)C(=O)c1ccncc1 | 20
CN(C)C(=O)n1c(C(=O)N2CCN(c3ccncc3)CC2)cc2c1c1ccccc1n2C | 9
COC(=O)[C@]1(C)N[C@H](c2ccc(C#CC(C)(C)O)cc2)[C@@H]2C(=O)N(C)C(=O)[C@@H]21 | 1
CCN(CC)S(=O)(=O)c1ccc(S(=O)(=O)N2CCCC2C(=O)O)cc1 (stereo unspecified) | 5

Among those listed so far, these have a Cl atom.
SMILES | Tg IFNy HTS
CC(c1nccs1)N(C)C(=O)CCC(=O)Nc1ccc(F)c(Cl)c1 (stereo unspecified) | -5
O=C(O)c1ccc(-n2cnnc2)cc1Cl | 4
CCN(CC)C(=O)c1cc(=O)n(CC(=O)Nc2cccc(Cl)c2)c2ccccc12 | -3
OC12CCCCC1C(c1ccc(Cl)cc1Cl)NCC2 (stereo unspecified) | 69&-54
Cc1cc(C)cc(NC(=S)N2CCN(c3ncc(C(F)(F)F)cc3Cl)CC2)c1 | 36
O=c1oc(-c2ccccc2Cl)nc2sc3c(c12)CCCCC3 | 12
Cc1ccc(C(=O)NCCc2sc(-c3ccc(Cl)cc3)nc2C)cc1C | -12
O=c1oc(-c2ccc(C(F)(F)F)cc2)nn1Cc1cc(Cl)ccc1O | -61&-51
O=C(CN1CCN(c2ccccc2)CC1)NN1CC(=O)N(c2cccc(Cl)c2)CC1=O | -19
O=C(OCc1ccco1)c1sc2sccc2c1Cl | -50
Cc1ccc(-c2nc(CN3CCN(C(=O)Nc4cccc(Cl)c4)CC3)c(C)o2)cc1 | 1
Cc1oc(-c2ccccc2Cl)cc1C(=O)N(C)Cc1noc(C(C)C)n1 | -41
Cc1nc(-c2cccc(F)c2)sc1CCNS(=O)(=O)c1cccc(Cl)c1 | 34
